# H5N1 CPE – antiviral screen in MDCK cells, H5N1 avian flu. cytopathic effect, luminescence, 72 h; active compounds read high; no value below 0 was filed and about half of the inactive calls have no number; reference of the scale not given here. inhibition, % at 50 µM. 96,000 tested, 0.07% active. AID 740; in the data active = inhibition above about 25%
# Starred values were filed as active, the others as inactive; i = inactive.
# Start of the data: the first two compounds (preview)
mol,H5N1 CPE
COC(=O)c1cn(C)c2ccc(S(=O)(=O)N3CC(C)CC(C)C3)cc2c1=O (stereo not drawn),i
Cc1ccccc1-n1c(=O)cc(N2CCCCCC2)[nH]c1=O,0.5

# Main list, from the first entry:
mol,H5N1 CPE
COC(=O)c1cn(C)c2ccc(S(=O)(=O)N3CC(C)CC(C)C3)cc2c1=O (stereo not drawn),i
Cc1ccccc1-n1c(=O)cc(N2CCCCCC2)[nH]c1=O,0.5
COCCn1c(C)cc(C(=O)COC(=O)c2ccc3ncsc3c2)c1C,0.3
CCOC(=O)N1CCN(S(=O)(=O)c2ccc(C(=O)Nc3ccc(F)cc3F)cc2)CC1,i
O=C(c1ccc(C(=O)N2CCOCC2)nc1)N1CCOCC1,0.2
Clc1ccc2nc(-c3ccc(Br)s3)cn2c1,0.6
Cn1c(Cl)cnc1C(O)c1ccccc1 (stereo not drawn),1.9
CC1Cc2ccccc2N1C(=O)CN1C(=O)CN(C)C(=O)c2ccccc21 (stereo not drawn),i
CCOC(=O)c1cc2occc2n1CCCN1C(=O)c2ccccc2C1=O,i
COc1ccc(-n2c(=O)cc(N3CCN(c4ccccc4F)CC3)[nH]c2=O)cc1,i
CCN(CC)S(=O)(=O)N1CCC(C(=O)NC2CCCc3ccccc32)CC1 (stereo not drawn),i
CC(=O)n1nc(-c2cccnc2)nc1N,0.7
COc1ccc(Nc2nc(N)nc(CSc3n[nH]c(-c4ccccc4)n3)n2)cc1,i
O=C(Nc1ccc(NC(=O)c2ccco2)nc1)c1ccccn1,i
CCC(CC)C(=O)Nc1cccc(/C(C)=N/NC(=O)c2ccccc2Cl)c1,0.4
CCn1c(SCC(=O)N2CCCCC2C)nc2ccsc2c1=O (stereo not drawn),14
CCC(=O)Nc1ccc(S(=O)(=O)Nc2ncccn2)cc1,i
O=c1c2cnn(-c3ccccc3)c2ncn1Cc1ccco1,i
CCCCOC(=O)C1=C(C)Nc2ncnn2C1c1cccc(OC)c1OC (stereo not drawn),2.3
COc1ccc(OC)c(S(=O)(=O)n2ccnc2C)c1,0.1
COc1ccc(S(=O)(=O)Nc2cc(OC)c(NC(=O)c3ccco3)cc2OC)cc1,1.0
COC(=O)C1CCN(C(=O)NC2CCCCC2)CC1,i
O=C(CN1C(=O)c2ccccc2S1(=O)=O)N1CCN(c2ccccc2F)CC1,0.7
O=C(Nc1ccc2c(c1)OCCO2)c1c(F)cccc1F,1.7
O=C(COc1cc(Cl)ccc1Cl)Nc1nnc(CC(=O)N2CCOCC2)s1,i
CCn1c(SCC(=O)N2CCN(c3ccc(F)cc3)CC2)nnc1-c1ccncc1,3.5
COC(=O)CSc1nc2c(c(=O)n(C)c(=O)n2C)n1CCCc1ccccc1,0.7
CC(C)Oc1ccc(C(=O)NC2CCCCC2)cc1,0.3
O=C1Nc2cccnc2Sc2ccccc21,0.2
COc1cc(OC)nc(NC(=O)COC(=O)C2CCCCC2)n1,i
CCOC(=O)C1=C(C)NC(=O)NC1/C(C)=C/c1ccccc1 (stereo not drawn),i
COc1ccc(-c2noc(CCC(=O)Nc3cc(Cl)c(OC)cc3OC)n2)cc1,0.1
CCCOC(=S)N/C(=N\S(=O)(=O)c1ccccc1)c1ccccc1,1.4
O=C(COC(=O)COc1ccc(Cl)cc1)NC1CCCCC1,i
Cc1csc(SCC(=O)N2CCCC2)n1,i
N#CCCSCc1ccc(C(=O)O)o1,i
COc1ccc(Cl)cc1S(=O)(=O)N1CCN(C)CC1,0.2
O=C1C2CCCN2C(c2ccccc2)N1c1ccc(Cl)cc1 (stereo not drawn),4.5
CC(C)c1nc(N2CCCC2)c(C#N)c2c1CCCC2,0.9
O=C(NCc1ccccn1)c1cc2ccccn2n1,0.3

# Individual results from the list.
# H5N1 CPE, `COc1ccc(Cl)cc1S(=O)(=O)N1CCN(C)CC1` : 0.2
# H5N1 CPE, `CC(C)c1nc(N2CCCC2)c(C#N)c2c1CCCC2` : 0.9
# H5N1 CPE, `CCCOC(=S)N/C(=N\S(=O)(=O)c1ccccc1)c1ccccc1` : 1.4
# H5N1 CPE, `COc1ccc(-c2noc(CCC(=O)Nc3cc(Cl)c(OC)cc3OC)n2)cc1` : 0.1

# Next entries.
mol,H5N1 CPE
NC(=O)CC(O)c1cccc(Cl)c1 (stereo not drawn),i
CCN(CC)C(=O)Cn1cc(/C=C(\C#N)C(=O)N2CCN(c3ccccc3)CC2)c2ccccc21,i
CCCCCCc1cc2cc(C(N)=O)c(=N)oc2cc1O,3.4
O=C(Cn1cc(-c2nnnn2-c2ccc(Cl)cc2)c(=O)c2ccccc21)c1ccccc1,i
Cc1nc2nc[nH]n2c(=O)c1NC(=O)c1c(-c2ccccc2Cl)noc1C,0.4
COc1ccc(S(=O)(=O)N2CCCN(CC(=O)Nc3cc(NC(C)=O)ccc3OC)CC2)cc1,3.1
CCOC(=O)COc1nc(N(C)C)nc(N(C)C)n1,0.3
CCCSc1nc(=O)n2cc(C)ccc2n1,13
Cc1cc(C)c(NC2=CC(=O)CC(C)(C)C2)c(C#N)c1,i
Cc1cc(C)nc(/N=C(\N)Nc2ccc(F)c([N+](=O)[O-])c2)n1,i
Cc1cc(C)cc(NC2=CC(=O)CC(c3ccco3)C2)c1 (stereo not drawn),1.2
COCCCn1nnnc1SCC(=O)Nc1nc(C)c(C)s1,1.8
O=C(CSCc1ccccc1)Nc1ccc2c(c1)OCO2,0.1
Cn1c(SCC(=O)N(C2CCCCC2)C2CCCCC2)nnc1-c1cccs1,5.7
COc1ccc(CNC(=O)Cc2c(C(=O)O)[nH]c3ccccc23)cc1,i
CNC(=S)Nc1ccc(OC)c(OC)c1,0.7
Cn1c(Cn2c(C(F)(F)F)nc3ccccc32)nc2ccccc21,i
Cc1c(N(C(=O)Nc2ccccc2)C2=NCC(C)S2)c(=O)n(-c2ccccc2)n1C (stereo not drawn),0.3
CCC1=NN2C(=N)/C(=C\c3ccc(SCc4ccco4)o3)C(=O)N=C2S1,0.1
Cc1ccc(CNC(=O)c2ccccc2N)cc1,i
COC(=O)c1ccc(C2CC(=O)Nc3cc(OC)c(OC)cc32)cc1 (stereo not drawn),0.9
C=CCNC(=S)N1CCC(C(=O)c2ccc(OC)cc2)CC1,0.3
COc1ccccc1C1C(C(=O)c2cc3ccccc3o2)=C(O)C(=O)N1CCN(C)C (stereo not drawn),1.4
COc1ccccc1NC(=S)NC(=O)CCCOc1ccc(Cl)cc1Cl,0.4
Cn1c(=O)n(CCc2ccccc2)c(=O)c2c1nc1n2CCN1Cc1ccco1,0.3
CC(=O)N(c1ccc2oc(=O)sc2c1)S(=O)(=O)c1ccccc1,2.2
Cc1ccc(CCNC(=O)C2CC(c3ccccc3[N+](=O)[O-])=NO2)cc1 (stereo not drawn),3.1
CCCn1nnnc1SCC(=O)NCc1cccs1,0.4
CCOc1ccc(-c2ncncc2-c2ccc(OC)cc2)c(O)c1,1.7
Cc1cc(C)c2c(N)c(C(=O)N3CCCCCC3)sc2n1,i

# Reformatted: four of the compounds above
COc1ccccc1C1C(C(=O)c2cc3ccccc3o2)=C(O)C(=O)N1CCN(C)C (stereo not drawn)
  H5N1 CPE = 1.4
Clc1ccc2nc(-c3ccc(Br)s3)cn2c1
  H5N1 CPE = 0.6
CCCOC(=S)N/C(=N\S(=O)(=O)c1ccccc1)c1ccccc1
  H5N1 CPE = 1.4
COCCn1c(C)cc(C(=O)COC(=O)c2ccc3ncsc3c2)c1C
  H5N1 CPE = 0.3

# Next section
mol,H5N1 CPE
Cc1ccc(C)c(N2CCN(C(=O)Cc3cn(C)c4ccccc34)CC2)c1,1.0
Cc1cc(/C=C(/C#N)c2nc3ccccc3[nH]2)c(C)n1-c1cccc([N+](=O)[O-])c1,i
COc1ccc(C(CNC(=O)c2ccc(-n3cnnn3)cc2)N2CCOCC2)cc1 (stereo not drawn),0.7
Cc1cc2cc(CNC(=O)c3ccc(S(=O)(=O)N4CCOCC4)cc3)ccc2n1C,3.3
COC(=O)c1cc(OC)c(OC)c(OC)c1N,i
COCC(C)NC(=O)c1noc2c1CCc1cc(OC)ccc1-2 (stereo not drawn),i
C=CCn1c(NC(=O)c2ccccc2Cl)c(C#N)c2nc3ccccc3nc21,0.8
CCOCC(=O)Nc1nc2ccc(C)cc2s1,i
Cn1nnnc1SCC(=O)Nc1nc(-c2ccccc2)c(-c2ccccc2)o1,i
CCOC(=O)C1CCCN(c2nc3ccccc3nc2C(C#N)C(=O)NCc2ccccc2)C1 (stereo not drawn),i

# The listing continues.
SMILES	H5N1 CPE
O=C(Cn1ncc2c(=O)oc3ccccc3c21)NCCc1ccsc1	3.5
CCCCn1c(SCC(=O)c2ccc(OC)cc2OC)nc2cc(S(N)(=O)=O)ccc21	0.5
CCNC(=O)c1sc(-c2ccccc2)nc1C	i
O=C1CC(c2ccccc2)n2nc(NC(=O)c3ccccc3)nc2N1 (stereo not drawn)	1.9
Cc1ccc(S(=O)(=O)N[C@H](C(=O)Oc2ccc3c(C(F)(F)F)cc(=O)oc3c2)c2ccccc2)cc1	i
COc1ccccc1N(CC(=O)Nc1ccc2c(c1)OCCO2)S(C)(=O)=O	0.3
COc1cc(-c2nnc(-c3cccs3)o2)cc(OC)c1OC	0.8
CC(=O)c1c(C)[nH]c(C(=O)OCC(=O)Nc2cc(C(F)(F)F)ccc2N2CCOCC2)c1C	i
c1cc(CNc2ccc3c(c2)OCO3)ccn1	i
CCOc1ccc(S(=O)(=O)Nc2ccccc2C(=O)NCC2CCCO2)cc1 (stereo not drawn)	0.2
Cc1cc(NC(=O)COC(=O)COc2ccc(C(=O)c3ccccc3)cc2)no1	i
Cc1noc(C)c1S(=O)(=O)N(CC(=O)N1CCCC1)c1ccc(C(C)C)cc1	1.1
Cc1ccc(NC2c3ccccc3C(=O)N2CCN2CCOCC2)cc1 (stereo not drawn)	i
O=C(Oc1ccc2c(c1)C(=O)c1ccccc1CO2)c1ccccc1	1.9
O=C(CN1CCN(c2ccc(F)cc2)CC1)N1CCC(Cc2ccccc2)CC1	i
O=C(c1nc2n(n1)C(c1ccc(Cl)cc1)C=C(c1ccccc1)N2)N1CCOCC1 (stereo not drawn)	0.9
CCCCC(c1nnnn1CS(=O)(=O)c1ccc(C)cc1)N1CCN(c2ccccc2)CC1 (stereo not drawn)	i
COc1ccc(C(NC(=O)C(C)(C)C)NC(=O)C(C)(C)C)cc1	i
CCN1CCN(C(=O)Nc2cccc(C(F)(F)F)c2)CC1	i
C/C(=N\NC(=O)c1ccccc1)c1ccc(N2CCOCC2)cc1	1.7
CCC1CCCCN1CCCNC(=O)Cn1nc(-c2ccc(C)cc2)ccc1=O (stereo not drawn)	1.7
Cc1ccccc1Nc1nc(Nc2ccccc2C)nc(SC2=NCCS2)n1	0.2
C=CCNC(=O)/C(=C/c1ccco1)NC(=O)c1ccc(Br)o1	1.3
COC(=O)CP(=O)(c1ccccc1)c1ccccc1	i
CCOc1c(Br)cc(C2NS(=O)(=O)N=C3CCCCCN32)cc1OC (stereo not drawn)	i
COC(=O)CCN(C(=O)c1ccc2c(c1)OCO2)c1ccccn1	0.4
CCn1cnc2cc(NCc3nc4ccccc4n3C)ccc21	i
O=C(NC1CC1)C1=NOC(CNc2ncc(C(F)(F)F)cc2Cl)C1 (stereo not drawn)	i
O=C1c2ccccc2NC(c2cccc(Cl)c2)N1N=C1CCCCCC1 (stereo not drawn)	4.7
O=C(OCn1nnc2ccccc2c1=O)c1ccc2ccccc2n1	i
C=CCN1C(=O)C(Cc2cccc(Cl)c2)S/C1=N/N=C/c1ccco1 (stereo not drawn)	4.6
COCCNC(=O)c1ccccc1NC(=O)COc1ccccc1	2.1
Nc1cccc(-c2nc3cc(S(=O)(=O)c4ccc5oc(-c6cccc(N)c6)nc5c4)ccc3o2)c1	0.7
CCOC(=O)c1oc2ccccc2c1NC(=O)C1CCCCC1	1.0
O=c1[nH][nH]c(-c2ccccc2)c1C=Nc1ccc(Cl)cc1	i
COc1ccc2oc(C)c(NC(C)=O)c2c1	0.1
COc1ccc(C(=O)c2oc3ccc(Br)cc3c2NC(C)=O)cc1	1.9
COC(=O)c1cc(C(=O)OC)cc(N2C(=O)CC(NNC(=O)c3ccccc3Br)C2=O)c1 (stereo not drawn)	i
Cc1cc(C)c2oc(=O)cc(CN3CCN(Cc4ccc5c(c4)OCO5)CC3)c2c1	1.3
O=C(Nc1nccs1)C1CC2CCC1C2 (stereo not drawn)	2.2
CCOC(=O)CSc1nnc(CNC(=O)c2cccs2)n1-c1ccccc1	1.2
Cc1ccc2c(CN3CCN(Cc4ccc5c(c4)OCO5)CC3)cc(=O)oc2c1C	0.7
CC(C)C(C(=O)N1CCOCC1)N1C(=O)c2ccccc2C1=O (stereo not drawn)	0.5
OC1CCN(Cc2cccc(Oc3ccccc3)c2)CC1	i
CN1/C(=C\C(=O)Nc2cccnc2)c2ccccc2CC1(C)C	0.8
CCOC(=O)N1CCC(NC(=O)C2CCCN(C(=O)c3cc4sccc4n3C)C2)CC1 (stereo not drawn)	i
CC(=O)N1CCC(N2CCN(c3ccccc3F)CC2)CC1	1.0
CC1=NN(c2ccccc2)C(=O)/C1=C/c1c(O)[nH]c(=S)[nH]c1=O	0.5
Cn1nnnc1SCC(=O)N1c2ccccc2CCc2ccccc21	7.3
COCCn1c(SCc2ccccc2Cl)nc2c1c(=O)[nH]c(=O)n2C	0.1

# New compounds follow:
SMILES	H5N1 CPE
CCCNS(=O)(=O)c1ccc(OCC(=O)N2CCC(C(=O)OCC)CC2)cc1	i
CCOc1ccccc1N1CSC2=C(C#N)C(c3c(OC)ccc4ccccc34)CC(=O)N2C1 (stereo not drawn)	7.2
Nc1n[nH]c(-c2ccccc2)n1	1.1
COc1ccc(NC(=O)N2CCN(c3cccc(C(F)(F)F)c3)CC2)cc1	0.9
Cn1c(=O)[nH]c(=O)c2c1nc(Sc1nc3ccccc3s1)n2Cc1ccccc1	6.1

# Screening results as filed in PubChem.

# Some of the compounds tested, so the mix of outcomes need not match the whole.
